# KCNQ2 block: KCNQ2 potassium channel inhibitors, primary screen, cell-based, CHO-K1, FluxOR thallium flux, B-score (AID 2156) | 20 min; active compounds read low; only compounds with negative scores are shown here; some inactives read as strong as hits | 310,000 compounds, 1.1% hits | B-score at 10 µM | Potassium voltage-gated channel subfamily KQT member 2 (Rattus norvegicus), O88943;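 active = fluorescence ratio B-score at most minus 3 library SDs, with starting brightness B-score within 2 library SDs, cut at about -5.5 in these data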
# Target sequence (O88943 whole entry, looked up): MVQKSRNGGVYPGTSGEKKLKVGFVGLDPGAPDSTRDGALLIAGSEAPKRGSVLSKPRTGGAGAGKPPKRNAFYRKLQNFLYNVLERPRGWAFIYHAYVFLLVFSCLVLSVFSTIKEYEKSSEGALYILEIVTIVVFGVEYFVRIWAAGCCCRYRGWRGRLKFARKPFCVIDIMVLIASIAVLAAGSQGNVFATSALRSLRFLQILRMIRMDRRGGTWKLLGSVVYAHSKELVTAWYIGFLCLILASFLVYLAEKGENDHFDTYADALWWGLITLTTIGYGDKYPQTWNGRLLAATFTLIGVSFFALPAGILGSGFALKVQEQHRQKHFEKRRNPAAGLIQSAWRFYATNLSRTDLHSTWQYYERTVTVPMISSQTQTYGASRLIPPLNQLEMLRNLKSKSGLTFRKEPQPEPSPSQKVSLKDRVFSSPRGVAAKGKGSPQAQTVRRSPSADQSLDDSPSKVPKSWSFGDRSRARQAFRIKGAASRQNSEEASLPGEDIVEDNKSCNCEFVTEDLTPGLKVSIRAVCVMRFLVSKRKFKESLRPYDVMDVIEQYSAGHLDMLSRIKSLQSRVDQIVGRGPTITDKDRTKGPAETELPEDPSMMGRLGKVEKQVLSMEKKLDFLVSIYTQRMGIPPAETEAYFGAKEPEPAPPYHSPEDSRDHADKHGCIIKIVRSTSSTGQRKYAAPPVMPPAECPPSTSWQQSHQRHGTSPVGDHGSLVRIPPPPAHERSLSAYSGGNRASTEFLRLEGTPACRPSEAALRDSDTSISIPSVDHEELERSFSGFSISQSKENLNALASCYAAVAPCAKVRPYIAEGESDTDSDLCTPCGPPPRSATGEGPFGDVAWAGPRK
# KCNQ2 block baseline: second read-out of KCNQ2 block, no call of its own (marks repeat the call); B-score; measured here: initial fluorescence intensity artifact check;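 brightness before thallium and not channel activity; 0 = typical well and far values either way flag optical interference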
# Starred values were filed as active, the others as inactive; i = inactive. These rows are one share of the data; rates above refer to the full screens.
SMILES	KCNQ2 block	KCNQ2 block baseline
CCCCc1cc(=O)oc2cc(OCC(=O)N3C[C@H]4C[C@@H](C3)c3cccc(=O)n3C4)c(Cl)cc12	i	-1.4
COC(=O)c1ccc(NC(=O)CSc2nc3ccc(N4C(=O)C5C6C=CC(C6)C5C4=O)cc3s2)cc1 (configuration not stated)	i	1.6
CCOc1ccc(C(=O)OC2CC3CCC(C2)N3C)cc1 (configuration not stated)	i	-0.02
O=c1c2ccccc2nc(CSc2ncnc3nc[nH]c23)n1-c1ccccc1Cl	i	1.1
CN(C)c1ccc(NC(=O)CN2C(=O)CN=C(c3ccccc3)c3cc(Cl)ccc32)cc1	i	0.88
CC[N+](CC)(CC#CCO)CC#Cc1ccccc1	i	-0.55
O=C1/C(=C/c2cccc([N+](=O)[O-])c2)N2CCC1CC2	i	1.3
COc1cc(C(=O)Nc2ccc(Br)cc2C(=O)c2ccccc2Cl)cc(OC)c1OC	i	-0.21
CC(Cc1ccccc1)NCc1ccccc1O (configuration not stated)	i	-0.31
Cc1ccc(/C=C2/C(=O)NC(=O)N(CCc3ccc(F)cc3)C2=O)o1	i	1.5
O=C1OC(c2ccc(Cl)cc2)=N/C1=C\N1CC2CC(C1)c1cccc(=O)n1C2 (configuration not stated)	i	-0.18
C[C@]12CC[C@H]3[C@@H](CCC4=CC(=O)CC[C@@]43O)[C@@H]1CCC2=O	i	1.1
CC1CN(CCc2ccccc2)CC(C)O1 (configuration not stated)	i	0.62
COC(=O)C1=C(c2cc3ccccc3s2)C[C@@H]2CC[C@H]1N2C(=O)NCc1cccc2ccccc12	i	-0.61
Cc1ccnc(-n2c(C)nc3ccccc3c2=O)c1	i	0.51
COCCCNC(=O)c1c(NC(=O)c2ccccc2Cl)n(Cc2ccccc2)c2nc3ccccc3nc12	i	0.12
CCOP(=O)(OCC)C(NC(=O)c1ccc(OC)cc1)C(Cl)(Cl)Cl (configuration not stated)	i	0.7
Cc1ccc(Cn2nnnc2CN2CCC(n3nnc4cc(C)ccc43)CC2)cc1	i	-1
O=P(Oc1ccccc1)(Oc1ccccc1)N1CCN(c2ccc(F)cc2)CC1	i	0.7
CCOC(=O)N(C)c1ccc(C(O)(C(=O)OC)C(F)(F)F)cc1 (configuration not stated)	i	0.87
COC(=O)[C@@]1(C#N)[C@@H]2C=CC(C(C)=O)=CN2[C@@H](C(N)=O)[C@@H]1c1ccc(F)cc1	i	0.46
CC(O)(CS(=O)(=O)c1ccccc1)C(=O)Nc1ccc(C(F)(F)F)cc1 (configuration not stated)	i	-2.1
O=c1c2ccccc2nc(-c2ccccc2Cl)n1-c1cccc(O)c1	i	3.3
CCCS(=O)(=O)N1CCC(C(=O)N2CCC3(CC2)OCCO3)CC1	i	0.19
COc1ccc(CNC(C)Cc2cccs2)cc1 (configuration not stated)	i	0.01
CC#CP(=O)(OCC)C(O)(c1ccccc1)C(F)(F)F (configuration not stated)	i	-0.71
Cc1cccc(-c2nc3ccc(C(=O)N4CCC5(CC4)OCCO5)cc3nc2-c2cccc(C)c2)c1	i	0.02
Cc1nn(Cc2ccc(Cl)cc2Cl)c(Cl)c1C(=O)NC1CCCc2ccccc21 (configuration not stated)	i	0.75
O=c1[nH]c(=O)n(-c2cccc(F)c2)c(O)c1/C=C1\C=Nc2ccccc21	i	4.3
Cc1c(C=C2C(=O)N(C)C(=S)N(C)C2=O)c2ccccc2n1CC(=O)NCC1CCCO1 (configuration not stated)	i	0.88
CCOC(=O)Cc1csc(NC(=O)c2c(O)c3ccccc3n(CCC(C)C)c2=O)n1	i	-1.1
OC(CNCCc1c[nH]c2ccccc12)C(F)(F)F (configuration not stated)	i	2.2
Cc1nn(C)c(C)c1P(=S)(c1c(C)nn(C)c1C)N(C)C	i	-0.73
CCN(CC(=O)Nc1ccc(C#N)c(Cl)c1)CC(=O)NC(C)(C)C	i	0.19
C=CCn1c(O)c(C(C)=NCCCn2ccnc2)c(=O)[nH]c1=O	i	1.4
CC(C)Sc1nnc([C@@H](N)Cc2c[nH]c3ccccc23)o1	i	0.08
O=c1[nH]c(=S)[nH]c(O)c1N=Nc1cc2c(cc1[N+](=O)[O-])OCO2	i	0.25
COc1ccc(-n2c(/C=C/c3ccc(O)c(O)c3)nc3ccccc3c2=O)cc1	i	-0.15
O=C(c1cccc(C(F)(F)F)c1)N1C[C@H]2C[C@@H](C1)c1cccc(=O)n1C2	i	1.8
Oc1ccc2c3c1O[C@H]1c4[nH]c5ccccc5c4C[C@@]4(O)C(C2)N(CC2CC2)CC[C@]314	i	0.76
Cn1cccc1CNCCc1ccccc1F	i	-2.5
CCC(=NCCCn1ccnc1)c1c(O)n(-c2ccc(OC)cc2)c(=O)[nH]c1=O	i	1.2
CC(=Nc1ccc2c(c1)CCC2)c1c(O)n(C)c(=O)n(C)c1=O	i	-0.11
CC(=O)[C@H]1CC[C@H]2[C@@H]3CC[C@H]4C[C@H](O)CC[C@]4(C)[C@H]3C(=O)C[C@]12C	i	0.34
CCCN1CC(C)C(OC(C)=O)(c2ccccc2)CC1C (configuration not stated)	i	0.7
CCN1C(=O)/C(=C/c2ccc(N(CC)CC)cc2OC)C(=O)NC1=S	i	1.5
CCCC(=O)c1c(O)[nH]c(=O)[nH]c1=O	i	-0.74
Clc1cnc(Oc2ccc(Oc3ncc(Cl)cc3Cl)cc2)c(Cl)c1	-5.6*	-0.98*
Cc1[nH]n(-c2ccccc2)c(=O)c1C(c1ccc([N+](=O)[O-])cc1)c1c(C)[nH]n(-c2ccccc2)c1=O	i	-0.62
Cc1oc(-c2ccccc2Cl)nc1CN1C(=O)CN=C(c2ccccc2)c2ccccc21	i	-0.32

# 2 successive records out of the list so far, for reference:
SMILES	KCNQ2 block	KCNQ2 block baseline
CC(C)Sc1nnc([C@@H](N)Cc2c[nH]c3ccccc23)o1	i	0.08
O=c1[nH]c(=S)[nH]c(O)c1N=Nc1cc2c(cc1[N+](=O)[O-])OCO2	i	0.25

# Back to the main list with the four entries that preceded the break.
SMILES	KCNQ2 block	KCNQ2 block baseline
CCCC(=O)c1c(O)[nH]c(=O)[nH]c1=O	i	-0.74
Clc1cnc(Oc2ccc(Oc3ncc(Cl)cc3Cl)cc2)c(Cl)c1	-5.6*	-0.98*
Cc1[nH]n(-c2ccccc2)c(=O)c1C(c1ccc([N+](=O)[O-])cc1)c1c(C)[nH]n(-c2ccccc2)c1=O	i	-0.62
Cc1oc(-c2ccccc2Cl)nc1CN1C(=O)CN=C(c2ccccc2)c2ccccc21	i	-0.32
CN1CC=C(/C=C/c2ccc(-c3ccccc3)cc2)CC1	i	-0.05
CCc1ccccc1N1C(=O)/C(=C/c2ccc(N3CCN(C)CC3)o2)C(=O)NC1=S	i	17
O=C1NC(=O)N(CCNc2ncc(C(F)(F)F)cc2Cl)C(=O)C1/C=N/OCc1c(F)cccc1Cl (configuration not stated)	i	1.3
Cc1ccc(N=C(N(C)C)P(=O)(N(C)C)N(C)C)cc1	i	-0.4
O=C1NC(=O)C(CCc2ccncc2)(Cc2ccc3c(c2)OCO3)C(=O)N1CCc1ccccc1 (configuration not stated)	i	-0.71
Fc1ccc(CN2CCN(c3ccc(Cl)cc3)CC2)cc1	i	-0.18
CCCCCCCn1c(=O)c(C(=O)Nc2cnccn2)c(O)c2ccccc21	i	-0.06
COc1ccc(OCC(=O)Nc2ccc(Cl)cc2C(=O)c2ccccc2)cc1	i	-1.2
CN(C)S(=O)(=O)c1cc(NC(=O)COC(=O)Cc2ccccc2)ccc1Cl	i	0.58
C#CC1(OC(=O)c2ccccc2)CC(C)N(C)CC1C (configuration not stated)	i	0.72
CC(C)N1CCN(c2ccc(O)cc2)CC1	i	1
CCC(=O)N1CC(=O)Nc2ccc(Br)cc2C1c1ccccc1 (configuration not stated)	i	0.4
O=c1[nH]c(=S)n(Cc2ccc(F)cc2)c(O)c1/C=N/N1CCCCC1	i	0.53
O=C(COC(=O)c1ccccc1)Nc1ccc(Cl)cc1C(=O)c1ccccc1	i	-0.3
Cc1cc(OC(C)C(=O)N[C@H](C(=O)O)c2ccccc2)c2c3c(c(=O)oc2c1)CCC3 (some centres not stated)	i	0.64
Cc1ccsc1C(=O)C1CCCN(Cc2cccc(-n3cccn3)c2)C1 (configuration not stated)	i	0.2
CCCC[N+]12CCC(CC1)C(C(O)(c1ccccc1)c1ccccc1)C2 (configuration not stated)	i	-0.61
O=C1CN(O)C(c2ccccc2)=c2cc(Cl)ccc2=N1	i	0.4
CC(C)C/C(=N/O)c1cn(C)c2ccccc12	i	0.19
Cc1ccc(-n2c(C)nc3ccccc3c2=O)cc1C	i	-0.12
Cc1cc(OC(=O)CCNC(=O)OC(C)(C)C)c2c3c(c(=O)oc2c1)CCC3	i	0.37
CCc1ccc(CNCCc2ccccc2F)cc1	i	0.52
CN1C(=O)C(Cc2ccsc2)C(=O)N(C)C1=O	i	0.2
O=C1NC(=O)N(Cc2ccc(F)cc2)C(=O)/C1=C\C=C\c1ccco1	i	2
c1ccc(-n2ccnc2)cc1	i	3

# Later entries
Molecule	KCNQ2 block	KCNQ2 block baseline
O=C(Oc1c(Cl)cc(Cl)c2ccccc12)N1CCCCC1	i	0.04
Cc1ccc(/C=C2\C(=O)NC(=S)N(c3cccc(F)c3)C2=O)o1	i	-1.4
O=C(c1ccc(C(F)(F)F)cc1)C1CCCN(Cc2ccncc2)C1 (configuration not stated)	i	-1.6
COC/C=C1\CN2C3C[C@@H]1[C@H]1COC4=Nc5cc(OC)c(OC)c(OC)c5[C@@]43C[C@@H]12	i	1
Cc1ccccc1-n1c(O)c(C=NCCN2CCOCC2)c(=O)[nH]c1=O	i	-0.8
CC1(C)CC(=O)C(C=NCCN2CCN(C(=O)Cc3ccc(Cl)cc3)CC2)=C(O)C1	i	1.2
Fc1ccc(C2=CCN(C(c3ccc(Cl)cc3)c3nnnn3Cc3ccccc3)CC2)cc1 (configuration not stated)	i	-0.28
COc1ccc(CN2CCN(Cc3ccccc3OC)CC2)cc1	i	0.37
Cc1ccc2cc3cc(C(=O)N4CCC5(CC4)OCCO5)oc3nc2c1	i	-1.5
CC1=C(C/C(C)=C/c2ccccc2)/C(=C/CO)[C@@H]2OC(=O)O[C@]2(C)C12CC2	i	-2.1
CCC1(CC)C(=O)N(C)C(=O)NC1=NC	i	-0.78
COc1ccc2c3c1OC1C(O)C=CC4C(C2)[N+](C)(C)CCC341 (configuration not stated)	i	0.06
Cc1cccc(C)c1NC1=NCCCCS1	i	0.46
COCCn1c(-c2ccccc2)cc(C(=O)O)c1C	i	1.4
CNC(=O)Oc1ccc(-c2cn3cc(C)ccc3n2)cc1	i	-0.93
CCCCn1c(=O)c(C(=O)Nc2ccccc2C)c(O)c2ccccc21	i	-0.52
CC(C)C(=O)Nc1nnc(CCN(CCc2nnc(NC(=O)C(C)C)s2)[N+](=O)[O-])s1	i	1.5
CC(=O)OC1N=C(c2ccc(Cl)cc2)c2cc(Br)ccc2NC1=O (configuration not stated)	i	-1
O=C(c1ccco1)c1cn(Cc2ccc(Cl)cc2)c2ccccc12	i	-1.5
CC(C)(C)n1cc(C(=O)c2ccccc2OCCCF)cn1	i	0.63
Cn1c(O)c(C=NCc2cccs2)c(=O)n(C)c1=O	i	1.6
CC(=O)NC(C)Cc1ccccc1 (configuration not stated)	i	1
Cc1ccccc1CCNCc1ccc(Br)cc1	i	1.8
Cc1cc(C=C2C(=O)NC(=S)NC2=O)c(C)n1C1CCCC1	i	-0.06
O=C(O)CCC(=O)NCCC1=c2ccccc2=N/C1=C\c1c(O)n(Cc2ccc(F)cc2)c(=S)[nH]c1=O	i	-1.3
CC(=O)c1ccc2c(c1)C1C(Cl)C(Sc3ccccc3[N+](=O)[O-])CC1C(c1ccccc1)N2 (configuration not stated)	i	-4
O=c1[nH]c(=O)n(-c2cccc(Cl)c2)c(O)c1C=NCCCN1CCOCC1	i	0.26
COc1ccc(OC)c(CC(=O)O)c1	i	-0.68
CCOc1ccc(N=Cc2c(O)n(Cc3ccccc3)c(=S)[nH]c2=O)cc1	i	-0.4
O=C(c1ccncc1)C12CN3CN(CN(C3)C1)C2	i	-2.3
O=C1NC(=O)C2(Cc3ccccc3N3CCOCC32)C(=O)N1c1ccccc1 (configuration not stated)	i	0.49
CC1CCN(C(=O)CCl)CC1	i	1.7
O=C(COc1ccc(Br)cc1)N1CCN(Cc2ccc3c(c2)OCO3)CC1	i	0.38
CCOC(=O)c1ccc2[nH]c(-c3ccc(S(=O)(=O)F)cc3)cc(=O)c2c1	i	-0.64
CN(C)CC#CCOCCOCCC#N	i	1.6
CCCC(=O)NC(Oc1ccccc1Cl)C(Cl)(Cl)Cl (configuration not stated)	i	1.1
CCOC(=O)C1(CCc2ccccc2)CCN(Cc2csc(C(C)=O)c2)CC1	i	0.46
Cc1nc2c(c(C)nn2-c2ccccc2)c(C)c1CCC(=O)N1CCC2(CC1)OCCO2	i	-0.09
CC(C)CN1CCN(Cc2ccccc2C(F)(F)F)CC1CCO (configuration not stated)	i	-0.08

# Looked up one by one from the list above (7):
Molecule	KCNQ2 block	KCNQ2 block baseline
O=C1NC(=O)C2(Cc3ccccc3N3CCOCC32)C(=O)N1c1ccccc1 (configuration not stated)	i	0.49
Cc1nc2c(c(C)nn2-c2ccccc2)c(C)c1CCC(=O)N1CCC2(CC1)OCCO2	i	-0.09
CN(C)CC#CCOCCOCCC#N	i	1.6
CC1CCN(C(=O)CCl)CC1	i	1.7
CCOC(=O)C1(CCc2ccccc2)CCN(Cc2csc(C(C)=O)c2)CC1	i	0.46
O=C(COc1ccc(Br)cc1)N1CCN(Cc2ccc3c(c2)OCO3)CC1	i	0.38
CCCC(=O)NC(Oc1ccccc1Cl)C(Cl)(Cl)Cl (configuration not stated)	i	1.1

# Compound activity as filed in PubChem.
